Assay outcomes: PubChem BioAssay, several laboratories
Yeast UUG start – yeast start codon fidelity modulation | S. cerevisiae UUG-firefly luciferase reporter, luminescence/redox ratio | activity score, % at 18.7 µM | hit rate 0.13% among 350,000 | AID 602363;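 active = replicate mean at a twofold rise or more, about +100% in these data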;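 note: firefly luciferase made from a UUG start codon reports start codon fidelity; reporter light over untreated wells divided by growth signal over untreated wells; some hits fall short of that in this replicate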
Rce1 inhib – yeast Ras-converting enzyme inhibition | yeast membranes, quenched prenylated peptide cleavage fluorescence | AID 2563 | hit rate 0.27% among 290,000 | calls only | Q03530;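 active = fall in fluorescence gain of 50% or more versus controls, with final raw signal at or below 3038400; inconclusive = same 50% fall but final raw signal above 3038400; inactive = fall in fluorescence gain under 50%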;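 note: plate controls were neutral control wells for no effect and wells lacking membranes for full effect; tested at 10 µM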
Target sequence (Q03530 whole entry, looked up): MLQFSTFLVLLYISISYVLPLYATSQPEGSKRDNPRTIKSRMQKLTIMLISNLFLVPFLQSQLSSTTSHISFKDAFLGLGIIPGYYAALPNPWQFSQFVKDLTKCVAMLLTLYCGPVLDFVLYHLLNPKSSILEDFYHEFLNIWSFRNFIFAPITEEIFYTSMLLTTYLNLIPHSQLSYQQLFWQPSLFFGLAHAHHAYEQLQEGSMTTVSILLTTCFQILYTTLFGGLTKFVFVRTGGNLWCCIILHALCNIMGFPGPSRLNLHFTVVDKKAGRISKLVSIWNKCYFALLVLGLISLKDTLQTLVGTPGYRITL
PABP polyA inh – blocks human PABP binding to poly(A) RNA; inhibition, % at 35 µM; AID 2014; hit rate 1% among 290,000; fluorescence polarization;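 active = 50% or more with normal probe brightness, or confirmed in later tests; inconclusive = above 50% with abnormal brightness, or retests that disagree; inactive = below 50% or failed in later tests; about a fifth of its hits are not listed in these tables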;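 note: calls also rest on retests at 20 µM and on dose response follow-up; controls were probe without protein and protein plus probe with vehicle; some compounds called inactive have numbers as strong as hits; many hits fall short of the cut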
Target sequence (P11940 whole entry, looked up): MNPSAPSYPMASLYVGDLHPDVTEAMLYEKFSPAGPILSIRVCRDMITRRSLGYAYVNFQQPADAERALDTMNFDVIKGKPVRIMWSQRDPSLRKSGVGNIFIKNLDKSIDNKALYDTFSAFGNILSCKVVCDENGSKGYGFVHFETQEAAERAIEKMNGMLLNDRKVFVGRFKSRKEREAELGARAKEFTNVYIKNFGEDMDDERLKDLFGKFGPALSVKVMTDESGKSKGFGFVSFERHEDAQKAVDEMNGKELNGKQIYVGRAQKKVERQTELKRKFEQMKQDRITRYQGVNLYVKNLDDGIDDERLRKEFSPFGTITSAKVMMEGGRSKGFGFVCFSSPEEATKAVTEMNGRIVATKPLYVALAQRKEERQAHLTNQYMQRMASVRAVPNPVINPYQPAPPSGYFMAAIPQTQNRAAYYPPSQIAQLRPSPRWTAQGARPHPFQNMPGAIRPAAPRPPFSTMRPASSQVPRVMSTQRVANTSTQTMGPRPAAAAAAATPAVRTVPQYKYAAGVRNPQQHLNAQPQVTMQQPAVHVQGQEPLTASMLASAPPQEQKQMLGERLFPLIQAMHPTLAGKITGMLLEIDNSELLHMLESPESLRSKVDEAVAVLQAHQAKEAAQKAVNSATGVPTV
eIF4H FP inh – inhibitors of RNA binding by human eIF4H; inhibition, % at 35 µM; hit rate 0.94% among 290,000; AID 2012; eIF4H fluorescence polarization binding assay;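 active = 50% or more with normal probe brightness, or confirmed in later tests; inconclusive = above 50% with abnormal brightness, or retests that disagree; inactive = below 50% or failed in later tests; about a fifth of its hits are not listed in these tables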;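 note: calls also rest on retests at 20 µM and on dose response follow-up; 0% = protein and probe with vehicle and 100% = probe without protein; strong numbers were not always called active; many hits fall short of the cut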
MT1-MMP act inh – blocks activation of human MT1-MMP. AID 651647. P50281. HT1080 RFP-PRO-GFP cells, GFP/RFP ratio fluorescence, overnight; percent of plate control window, DMSO zero. hit rate 0.061% among 360,000. GFP/RFP ratio change, % at 20 µM;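 active = GFP/RFP ratio change of at least 30% with cell ATP level not reduced by more than half and red fluorescence within 50% of control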; note: strong numbers were not always called active
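Test system: HT1080 cells expressing an RFP-PRO-GFP fluorescent reporter construct / Compound dosing: single-point 20 µM compound, 1% DMSO / Schedule: cells overnight before dosing, compound overnight, 37 °C, 5% CO2 / Evaluation: GFP/RFP fluorescence ratio / Control set: DMSO and RFP-L50D-GFP cell wells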
CSC inhib – blocks cancer stem cells | cancer stem cell-like cells viability, luminescence | inhibition, % at 7.5 µM | hit rate 1.1% among 300,000 | AID 2717;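 active = mean at 75% or more and at least half the replicates too; inconclusive = mean and replicates disagree; tested in HMLE shEcad cells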;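 note: 0% = median of negative and 100% = median of positive control wells; the first replicate is given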
Env fusion inh – blocks HIV Env-driven cell-cell fusion. HeLa-JRFL Env/CEM21 cell fusion, luciferase. inhibition, % at 12.3 µM. hit rate 1.1% among 360,000;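 active = mean replicate inhibition score of at least 50 and every replicate individually at or above 50; inconclusive = only one of the two criteria met; inactive = mean below 50 and not all replicates reaching 50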;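 note: 0% = plate neutral controls and 100% = maraviroc near 300 nM; one replicate is shown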
eIF4H FP inh retest – recorded beside eIF4H FP inh, whose call it bears; inhibition, %; compound at 20 µM; confirmation average;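 mean of two retest wells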
PABP polyA inh retest – recorded beside PABP polyA inh, whose call it bears; inhibition, %; compound at 20 µM; confirmation repeats;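 mean of two retest wells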
MT1-MMP act inh RFP – recorded beside MT1-MMP act inh, whose call it bears; RFP signal change, %; measured here: RFP expression control read;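 0 = vehicle wells; hits needed this value within 50% of zero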
Starred values were filed as active, the others as inactive; i = inactive; u = inconclusive; x = no result given. Compounds were not picked by outcome, and some 2.9% of all compounds hit somewhere here.

SMILES	Yeast UUG start	Rce1 inhib	PABP polyA inh	eIF4H FP inh	MT1-MMP act inh	MT1-MMP act inh RFP	CSC inhib	Env fusion inh	others
CCn1nnc(NC(=O)c2ccc([N+](=O)[O-])o2)n1	x	i	23	-4	6	-1	1	-5
Cc1cccc(-c2nc(S(=O)(=O)c3ccc(F)cc3)c(NCCCN3CCOCC3)o2)c1	1	i	12	-2	-9	-4	-10	-6
CCCCOc1ccc(C(=O)NN2C(=O)NC3(CCCCC3)C2=O)cc1OC	-7	i	x	x	2	3	-2	3
CCOC(=O)/C(=N\Nc1ccc(C(C)=O)cc1)c1csc(Nc2ccccc2)n1	x	i	-14	u	-37	6	14	-16
COC(=O)N1CC(C)N(C(=O)OC)CC1C (stereo unspecified)	-14	i	-2	-8	1	5	x	x
COc1ccc(C(=O)NCC(=O)OCCCOC(=O)CNC(=O)c2ccc(OC)c(OC)c2)cc1OC	-9	i	6	-5	8	-1	-13	-1
C[C@]12c3[nH]c4ccc(Cl)cc4c3CCN1C(=O)[C@@H](CC(=O)NCCCn1ccnc1)C[C@@H]2C(=O)N1CCCCC1	-21	x	x	x	-2	-1	x	19
O=C(N[C@@H](Cc1ccccc1)C(=O)NC1CC1)c1ccc(Cl)cc1	-11	i	0	0	-1	-1	-13	6
CN1CCN(S(=O)(=O)c2ccc(-c3ccccc3)cc2)CC1	0	i	10	-8	5	1	x	-11
CCCN(CC(=O)Nc1ccccc1C)C(=O)c1cccc(S(=O)(=O)N2CCc3ccccc3C2)c1	18	i	-2	-1	0	-7	-62	10
CCCCC(=O)N1CCCC(c2nc(-c3cccc(OC)c3)no2)C1 (stereo unspecified)	0	i	1	-9	0	0	-10	19
Cc1cccc(N(C)C(=O)CN(C)S(=O)(=O)c2ccc3c(c2)c(=O)n(C)c(=O)n3C)c1	28	i	6	-1	-4	0	9	8
COc1ccc(-c2nnc(C3CCN(S(=O)(=O)c4ccccc4)CC3)o2)cc1	9	i	2	-6	-2	2	-2	x
COc1ccccc1N(C(=O)c1ccco1)C(C(=O)NC1CCCC1)c1ccc(N2CCOCC2)cc1 (stereo unspecified)	2	i	2	-6	x	x	-1	5
CCOC(=O)C(Sc1nnc(-c2ccncc2)o1)C(C)=O (stereo unspecified)	-10	i	5	2	1	3	-5	-81
CC(=O)Nc1ccc(S(=O)(=O)NCCCN2CCN(Cc3ccccc3)CC2)cc1Cl	-1	i	10	-2	2	3	0	8
COc1cccc(-n2nnc3c(=O)n(CC(=O)NCC4CCCO4)cnc32)c1 (stereo unspecified)	-7	i	3	2	5	7	-16	-9
COc1ccccc1C(=O)C1CCCN(Cc2ccc(Oc3ncccn3)cc2)C1 (stereo unspecified)	x	i	0	-6	x	x	0	-9
Cc1cccc(CNc2ncnc3ccc(-c4ccoc4)cc23)c1	-1	x	x	x	-2	-25	1	30
Cc1cccc(NC(=O)CCS(=O)(=O)c2ccc3c(c2)NC(=O)CS3)n1	-7	i	36*	64	-2	5	-2	0	eIF4H FP inh retest=39;PABP polyA inh retest=107*

In the list so far, 7 have an aryl methoxy group:
SMILES	Yeast UUG start	Rce1 inhib	PABP polyA inh	eIF4H FP inh	MT1-MMP act inh	MT1-MMP act inh RFP	CSC inhib	Env fusion inh	others
CCCCOc1ccc(C(=O)NN2C(=O)NC3(CCCCC3)C2=O)cc1OC	-7	i	x	x	2	3	-2	3
COc1ccc(C(=O)NCC(=O)OCCCOC(=O)CNC(=O)c2ccc(OC)c(OC)c2)cc1OC	-9	i	6	-5	8	-1	-13	-1
CCCCC(=O)N1CCCC(c2nc(-c3cccc(OC)c3)no2)C1 (stereo unspecified)	0	i	1	-9	0	0	-10	19
COc1ccc(-c2nnc(C3CCN(S(=O)(=O)c4ccccc4)CC3)o2)cc1	9	i	2	-6	-2	2	-2	x
COc1ccccc1N(C(=O)c1ccco1)C(C(=O)NC1CCCC1)c1ccc(N2CCOCC2)cc1 (stereo unspecified)	2	i	2	-6	x	x	-1	5
COc1cccc(-n2nnc3c(=O)n(CC(=O)NCC4CCCO4)cnc32)c1 (stereo unspecified)	-7	i	3	2	5	7	-16	-9
COc1ccccc1C(=O)C1CCCN(Cc2ccc(Oc3ncccn3)cc2)C1 (stereo unspecified)	x	i	0	-6	x	x	0	-9

A draw from above in order of heavy-atom count, high to low:
SMILES	Yeast UUG start	Rce1 inhib	PABP polyA inh	eIF4H FP inh	MT1-MMP act inh	MT1-MMP act inh RFP	CSC inhib	Env fusion inh	others
C[C@]12c3[nH]c4ccc(Cl)cc4c3CCN1C(=O)[C@@H](CC(=O)NCCCn1ccnc1)C[C@@H]2C(=O)N1CCCCC1	-21	x	x	x	-2	-1	x	19
COc1ccccc1C(=O)C1CCCN(Cc2ccc(Oc3ncccn3)cc2)C1 (stereo unspecified)	x	i	0	-6	x	x	0	-9
Cc1cccc(NC(=O)CCS(=O)(=O)c2ccc3c(c2)NC(=O)CS3)n1	-7	i	36*	64	-2	5	-2	0	eIF4H FP inh retest=39;PABP polyA inh retest=107*

Back to the main list; the two compounds before the break are reprinted first.
SMILES	Yeast UUG start	Rce1 inhib	PABP polyA inh	eIF4H FP inh	MT1-MMP act inh	MT1-MMP act inh RFP	CSC inhib	Env fusion inh	others
Cc1cccc(CNc2ncnc3ccc(-c4ccoc4)cc23)c1	-1	x	x	x	-2	-25	1	30
Cc1cccc(NC(=O)CCS(=O)(=O)c2ccc3c(c2)NC(=O)CS3)n1	-7	i	36*	64	-2	5	-2	0	eIF4H FP inh retest=39;PABP polyA inh retest=107*
COc1ccc(NC2CCCN(C(=O)CN3CCOC3=O)C2)cc1OC (stereo unspecified)	-3	i	x	x	0	0	-9	-2
CC1=C(C)CC(C(=O)NCc2ccc3c(c2)OCO3)C(C(=O)O)C1 (stereo unspecified)	-9	i	-3	-4	6	2	-24	-34
O=C(CN1C(=O)S/C(=C\c2ccccc2F)C1=O)Nc1ccccc1O	-8	i	3	-6	-21	-13	17	7
CN(C)/C=N/c1nc2nccc(-c3cccnc3)n2n1	x	i	-13	-9	1	6	-1	18
CC(=O)C1=C(N2CCCCC2)CCC1=O	-18	i	-10	2	2	0	1	x
CC(=O)NC(c1ccco1)c1cc(Cl)c2ccc(Cl)nc2c1O (stereo unspecified)	-16	x	x	x	-15	-2	28	0
Cc1ccc(CN2CCN(C(=O)C3CCCO3)CC2)cc1 (stereo unspecified)	-20	i	3	-8	2	4	0	22
CCOC(=O)[C@@H]1[C@H]2COc3ccc(Br)cc3[C@@H]2N2C(=O)N(c3ccc(C(F)(F)F)cc3)C(=O)[C@]12C	-13	i	-11	3	-5	-5	16	-18
OCCN(CCO)c1ccc(C(c2ccc(Cl)cc2)c2ccc(N(CCO)CCO)cc2Cl)c(Cl)c1	-7	i	2	19	-5	1	22	x
Cc1nnc(N=c2ssnc2Cl)o1	-5	x	x	x	5	-4	42	-172
CCC(CO)Nc1ncc([N+](=O)[O-])cc1C#N (stereo unspecified)	x	i	-5	2	0	1	4	-19
COc1ccc(-n2c(CCc3ccccc3)n[nH]c2=S)cc1	-18	i	-6	-4	-7	-3	0	7
CCOCCCNC(=O)c1cccc(OC2CCN(S(C)(=O)=O)CC2)c1	-23	i	-2	-1	-1	-4	-12	-24
COc1ccc(-c2nc(CS(=O)CC(=O)N3CCc4ccccc4C3)c(C)o2)cc1 (stereo unspecified)	-3	i	17	-4	-2	-4	-1	0
COc1ccc(C)cc1NC(=O)CN(c1ccccc1)S(C)(=O)=O	7	i	-6	7	-4	0	3	-58
O=C(CCNS(=O)(=O)c1ccc(Br)s1)NC1CCCC1	-13	i	4	-6	-3	3	x	0
Nc1ccc(S(=O)(=O)Nc2nc(-c3ccccc3)cc(-c3ccccc3)n2)cc1	x	i	-3	9	8	1	2	-5
Oc1cccc(/C=N/N2CCN(C3c4ccccc4-c4ccccc43)CC2)c1	10	i	6	-5	0	5	0	8
CCOc1ccc(S(=O)(=O)N(CC)CC(=O)N2CCCC2)cc1C	-11	i	8	0	0	-1	-16	7
Cc1nnc(NC(=O)C(C)Sc2nnc(-c3ccco3)n2C(C)C)s1 (stereo unspecified)	-13	i	4	-10	0	-1	-2	7
Cn1c(C(=O)NCc2cccs2)cc2oc3ccccc3c21	-6	i	-2	2	-5	-10	-11	x
COc1ccc(-c2cc(NC=O)c3ncc(-c4cccc(C(=O)NCCN(C)C)c4)n3c2)cc1	-34	x	x	x	-2	2	x	-41
CC1(C)CC(=O)C(N=Nc2ccc(S(=O)(=O)N3CCCCCC3)cc2)=C(O)C1	x	i	5	7	3	5	-2	7
O=C(Nc1cccnc1)c1cc2nc(C3CC3)cc(C(F)(F)F)n2n1	-15	i	-5	-9	-1	2	-11	x
NS(=O)(=O)c1ccc(NCc2cnc3ccccc3n2)cc1	-14	x	x	x	4	5	x	-43
O=C(NCc1ccc(F)cc1)c1cccnc1C(=O)O	6	i	8	2	-1	1	-8	-3
CCC(C)N(C(=O)Cn1nnc(-c2ccc(F)cc2)n1)C1CCS(=O)(=O)C1 (stereo unspecified)	5	i	21	28	1	1	-9	0
CCOC(=O)[C@@H]1[C@H]2COc3ccccc3[C@H]2N2C(=O)N(c3cccc(C)c3)C(=O)[C@]12C	-10	x	x	x	2	-1	-14	40
COC(=O)C1CCCN1C(=O)c1cccs1 (stereo unspecified)	-38	i	-20	0	0	5	-11	x
CCOc1ccc(NC(=O)CN(C)C(=O)c2ccccc2SCc2c(C)noc2C)cc1OCC	13	i	x	x	-2	-1	1	-199
Cc1cccc(-n2ncc3c(NNC(=O)c4ccco4)ncnc32)c1	-17	i	0	-8	-2	2	-3	12
CC(/C=N/Nc1nncc(=O)[nH]1)=C\c1ccccc1	-14	i	120	-8	-1	2	-8	x	eIF4H FP inh retest=-8;PABP polyA inh retest=36
COc1ccc(-c2cc(C(=O)NN3CCOCC3)c3ccccc3n2)cc1OC	-16	i	-3	-8	-5	-4	x	2
O=c1[nH]cnc2c1ncn2Cc1ccc([N+](=O)[O-])cc1	-9	i	-4	-11	4	4	-7	0
Cc1ccc(C)c(SCC(=O)N(C)C2CCS(=O)(=O)C2)c1 (stereo unspecified)	-17	x	x	x	-1	1	-3	4
O=c1oc2ccccc2c(Nc2cccc(O)c2)c1[N+](=O)[O-]	-17	x	71*	84*	-6	1	-7	12
CC(Oc1ccccc1)C(=O)Nc1nnc(C2CCCCC2)s1 (stereo unspecified)	x	i	-7	4	1	5	x	-8
O=S(=O)(c1ccc(-c2ccon2)s1)N1CCCC1	x	i	2	-1	-1	0	-12	7
Nc1nc(N)c2nc(-c3ccccc3)c(N)nc2n1	-32	u	7	5	0	3	x	-26
O=C(CCCc1ccccc1)Nc1nncs1	-7	i	65	-4	0	3	-11	x	eIF4H FP inh retest=14;PABP polyA inh retest=20

Gathered by group, the entries above with a COOH group.
SMILES	Yeast UUG start	Rce1 inhib	PABP polyA inh	eIF4H FP inh	MT1-MMP act inh	MT1-MMP act inh RFP	CSC inhib	Env fusion inh	others
CC1=C(C)CC(C(=O)NCc2ccc3c(c2)OCO3)C(C(=O)O)C1 (stereo unspecified)	-9	i	-3	-4	6	2	-24	-34
O=C(NCc1ccc(F)cc1)c1cccnc1C(=O)O	6	i	8	2	-1	1	-8	-3
